NS1 function inh – blocks influenza NS1 protein function; S. cerevisiae slowed by influenza A NS1, growth recovery by OD600; actives 0.4% (n = 270,000); AID 2326; Potency, µM (highest dose often 46.1 µM), for inactives: top-dose activity, positive = more growth; also: actives are rising curves; nearly all actives have a fitted effect of over 50% in size
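S. cerevisiae expressing influenza A NS1, grown in glucose, washed, then diluted 1:100 into pH 6.0 -URA galactose medium with 23 nl compound. Growth recovery read as OD600; NS1-free strain serves as control.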
Cruzain noTriton – inhibitors of Trypanosoma cruzi cruzain without detergent. P25779. purified cruzain, Z-FR-AMC fluorescence, no detergent. Potency, µM, for the others: max response, negative = inhibition, actives largely listed as inhibitors. actives 2.3% (n = 200,000). AID 1476; active = well fitted curve in the direction sought with a large enough effect; inconclusive = small, poorly fitted or top-dose-only effect, or another doubt; inactive = no such curve, though single readings can be large; an effect the other way counts as inactive or inconclusive;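 also: plate controls were enzyme without inhibitor for no effect and buffer without enzyme for full effect; nearly all actives have a fitted effect of over 40% in size; top concentration of the series not given in the record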
Target sequence (P25779 123-467 limits assumed): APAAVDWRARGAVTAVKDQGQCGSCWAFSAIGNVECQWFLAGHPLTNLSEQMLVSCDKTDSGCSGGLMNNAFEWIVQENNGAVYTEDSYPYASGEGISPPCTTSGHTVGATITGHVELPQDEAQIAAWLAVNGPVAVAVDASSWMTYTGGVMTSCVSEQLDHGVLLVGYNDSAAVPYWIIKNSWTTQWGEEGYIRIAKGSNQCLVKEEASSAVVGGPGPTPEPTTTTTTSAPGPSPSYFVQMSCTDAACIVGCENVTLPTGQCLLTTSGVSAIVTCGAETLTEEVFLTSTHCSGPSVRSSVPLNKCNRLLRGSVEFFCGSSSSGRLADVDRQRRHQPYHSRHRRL
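Purified cruzain at 1.5 nM, pre-incubated 15 min with compound at room temperature in 100 mM sodium acetate pH 5.5, 5 mM DTT, 0.00005% Triton X-100. Reaction started with 2 uM Z-FR-AMC; AMC fluorescence increase over 60 s gives rate.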
SARS PLpro yeast – SARS-CoV PLP inhibition in yeast; S. cerevisiae expressing SARS-CoV PLpro, growth rescue; control for the full effect not named in the record; Potency, µM (doses to about 32.9 µM), without a hit: at the highest dose activity, positive = growth rescue; actives 0.19% (n = 330,000); also: 0% is about no effect; nearly all actives have a fitted effect of over 55% in size; growth read by luminescence after 48 h
MARV entry inh – blocks Marburg virus binding to or entry into cells; Marburg virus pseudotyped entry inhibition, cell reporter; control for the full effect not named in the record; about a third of the inactives were read at about 46 µM; Potency, µM (doses to about 37.8 µM), for inactives: top-dose activity change, negative = inhibition, most hits filed as inhibitors; actives 1.8% (n = 300,000); AID 540276; active = well fitted inhibition curve with a large enough effect; inconclusive = small, poorly fitted or top-dose-only effect, or effect the other way; inactive = flat fitted curve, though single readings scatter; tested in HEK293 cells; about a fifth of its hits are not listed in these tables; also: % is scaled to controls: 0 for no effect and ±100 for the full control effect; luciferase read-out
LASV entry inh – blocks Lassa virus binding to or entry into cells; Lassa virus pseudotype entry inhibition, cell reporter; control for the full effect not named in the record; actives 1.2% (n = 300,000); AID 540256; Potency, µM (top dose mostly 37.9 µM), without a hit: at the highest dose activity change, negative = inhibition, most hits filed as inhibitors; active means well fitted inhibition curve with a large enough effect; inconclusive means small, poorly fitted or top-dose-only effect, or effect the other way; inactive means flat fitted curve, though single readings scatter; tested in HEK293 cells; also: % is scaled to controls: 0 for no effect and ±100 for the full control effect; nearly all actives have a fitted effect of over 50% in size; luciferase read-out
RE007 growth inh – less growth of the S. pombe RE007 Vpr strain; Potency, µM (titrated, usually from 92.2 µM), without a hit: at the highest dose activity change, negative = less growth; actives 0.21% (n = 360,000); S. pombe RE007 Vpr strain, BacTiter-Glo ATP luminescence, 24 h; control for the full effect not named in the record; active = well fitted falling curve with a large enough effect; inconclusive = small, poorly fitted or top-dose-only effect; inactive = no such curve, though single readings can be large or run the other way;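 also: % is scaled to controls: 0 for no effect and ±100 for the full control effect; nearly all actives have a fitted effect of over 50% in size; the assay follows cell death caused by Vpr and the record does not say whether a fall means rescue or toxicity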
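Fission yeast strain RE007, carrying one chromosomally integrated HIV-1 vpr copy, was seeded at OD 0.01 in PMG+AL medium with 23 nL pinned compound. After 24 h at 30 °C and 99% humidity, viability was read by BacTiter-Glo luminescence.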
Cruzain Triton – blocks cruzain activity in presence of Triton detergent. P25779. purified cruzain, Z-FR-AMC fluorescence, 0.01% Triton. Potency, µM, without a hit: max response, negative = inhibition, hits mostly inhibitors. actives 0.43% (n = 200,000); active = well fitted curve in the direction sought with a large enough effect; inconclusive = small, poorly fitted or top-dose-only effect, or another doubt; inactive = no such curve, though single readings can be large; an effect the other way counts as inactive or inconclusive;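 also: plate controls were neutral wells for no effect and buffer without enzyme for full effect; nearly all actives have a fitted effect of over 40% in size; top concentration of the series not given in the record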
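Cysteine protease activity tested under reducing, mildly acidic conditions (100 mM sodium acetate pH 5.5, 5 mM DTT) plus 0.01% Triton X-100. Cruzain 1.5 nM; substrate Z-FR-AMC 2 uM; 15 min compound preincubation at room temperature.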
StopGo reporter – FMDV 2A StopGo reporter, luciferase signal; Potency, µM (titrated, usually from 57.9 µM), inactives show at the top dose signal change, negative = less light; human cells with a luciferase reporter of 2A StopGo recoding; control for the full effect not named in the record; actives 1.2% (n = 410,000); active = well fitted falling curve with a large enough effect; inconclusive = small, poorly fitted or top-dose-only effect; inactive = no such curve, though single readings can be large or run the other way; tested in HEK293T cells; also: % is scaled to controls: 0 for no effect and ±100 for the full control effect; nearly all actives have a fitted effect of over 45% in size; luciferase light after 4 h
An asterisk follows results filed as active; ? = inconclusive; / = not tested or not shown; [ ] = another dose, or the depositor's remark. Unless noted, calls follow the shape of the dose curve; as a rule, active means well fitted rising curve with a large enough effect; inconclusive means small, poorly fitted or top-dose-only effect; inactive means no such curve, though single readings can be large or run the other way. Potency is read from the fitted curve at half-maximal effect.

SMILES | NS1 function inh | Cruzain noTriton | SARS PLpro yeast | MARV entry inh | LASV entry inh | RE007 growth inh | Cruzain Triton | StopGo reporter
CCOC(=O)C1=C(COC(=O)COc2ccccc2C=O)NC(=O)NC1C (centres undefined) | / | / | -29% | ? | -4% | 6% | / | -3%
COc1ccc(NC(=O)c2[nH]c(C)c(C(C)=O)c2C)cc1S(=O)(=O)N1CCOCC1 | -5% | 1% | -22% | 8% | 0% | 12% | -1.4% | -17%
O=C(O)Cc1ccc(Nc2cnn(C34CC5CC(CC(CC(=O)O)(C5)C3)C4)c(=O)c2Cl)cc1 | 1% | / | 0% | -7%[46.1 µM] | ? | 0% | / | -13%
CN(C)C(=O)c1cc(F)ccc1Sc1cc(Cl)ccc1Cl | -5% | -6% | -3% | 7%[46.1 µM] | 8% | 31% | -1.4% | -27%
Cc1ccc([N+](=O)[O-])c(C(=O)N/N=C/c2cccnc2)c1 | 5% | / | 0% | 16%[46.1 µM] | 0%[46.1 µM] | 6% | / | 11%
Cc1oc(-c2cc(F)ccc2F)nc1CN1CCC(C(=O)N2CCOCC2)CC1 | 5% | / | -1% | ? | 13% | 9% | / | -24%
O=C1CC(N2CCN(S(=O)(=O)c3ccccc3)CC2)C(=O)N1c1ccccc1 (centres undefined) | 1% | / | -2% | / | / | 0% | / | -18%
Cc1ccc(C(=O)NNC(=O)Cc2nc3nc(C)cc(C)n3n2)cc1 | 6% | / | 3% | / | / | -16% | / | -7%
CCN(CC(=O)NC1CC1)S(=O)(=O)c1ccccc1 | 6% | / | 1% | / | / | 19% | / | 1%
COC(=O)[C@H]1C2CCC(C(=O)OC)(CC2)[C@H]1C(=O)OC | 1% | -5% | 0% | ? | 36% | 4% | 2.6% | 17%
COc1cc2c(cc1OC)CN(C(=O)c1ccc(-c3ccccc3)cc1)CC2 | -6% | / | -5% | / | / | -7% | / | -11%
COc1ccc(C)cc1NC(=O)CN1C(=O)c2ccccc2S1(=O)=O | -5% | -42% | -2% | / | / | -5% | 2.9% | -14%
COCCCNCCCOc1ccc(Cl)cc1Br | -3% | 8% | -7% | 16µM* | -18% | 2%[3.69 µM] | -2.1% | -8%
CCOc1ccc(NC(=O)COc2ccc(S(=O)(=O)NC3CCCCC3)cc2)cc1 | / | -4% | / | -25%[46.1 µM] | -3%[46.1 µM] | / | -7.2% | 0%
CCOC(=O)C1(Cc2ccccc2C)CCCN(Cc2cn(C)nc2C)C1 (centres undefined) | -6% | / | 1% | / | / | -19% | / | -24%
O=C(NCc1cccc(F)c1)c1ccc2nc(N3CCOCC3)sc2c1 | -3% | / | 6% | / | / | -12% | / | 14%
O=C(Nc1ccccc1)NC1CS(=O)(=O)CC1O (centres undefined) | 19% | -13% | 6% | 5% | -20% | -2% | 2.3% | 12%
COc1ccc(/C=C2\C(=O)NC(=O)c3ccccc32)cc1OC | / | / | / | 7% | -12% | -4% | / | -34%
Cn1ncc(Cl)c1C(=O)N1CCN(c2ccc(Cl)c(Cl)c2)CC1 | -38% | / | -15% | ? | 7% | -2% | / | 28µM*
O=[N+]([O-])c1ccccc1S(=O)(=O)Nc1cccc2cccnc12 | -34% | / | 1% | ? | ? | 3% | / | ?
CCOc1ccc(CCNC(=O)c2cn(-c3ccc(OC)cc3)c(=O)c3ccccc23)cc1OCC | / | -6% | / | / | 14%[46.1 µM] | / | -3.5% | -17%
COc1cc2c(OC(C)=O)c3c(c(-c4ccc5c(c4)OCO5)c2cc1OC)C(=O)OC3 | 2% | / | 1% | / | / | 2% | / | 0%
CCCCN1C(=O)CCC(C(=O)O)C1c1ccccc1 (centres undefined) | 18% | -2% | 1% | -17% | 2% | 5% | 8.3% | 8%
CN1CCN(NC(=O)Nc2cccc(F)c2)CC1 | -12% | / | -9% | -9%[46.1 µM] | 11%[46.1 µM] | 11% | / | 0%
CC(C)(C)N(CC(=O)NC1CCCCC1)C(=O)CS(=O)CC(=O)Nc1ccc(F)cc1 (centres undefined) | -19% | / | -2% | 11%[46.1 µM] | ? | -8% | / | -9%
Cc1nc(CS(=O)(=O)c2ccc(Cl)cc2)sc1C(=O)O | -2% | / | 0% | -1%[46.1 µM] | 4% | -11% | / | ?
CC1(C)CNC(=O)c2sc(NC(=O)CN3CCOCC3)nc2C1 | -1% | 3% | 1% | 1% | 10% | 4% | -2.1% | -4%
CCCCC1=CC2=C(c3ccco3)C(=O)C(C)(OC(=O)c3ccc(OC)cc3)C(=O)C2=CN1Cc1ccco1 (centres undefined) | ? | / | 0% | ? | / | -7% | / | -16%
COc1ccc(NS(=O)(=O)c2cc(NC(=O)/C=C/c3cc(OC)ccc3OC)ccc2N2CCCCC2)cc1 | 10µM* | 6.3µM* | 0% | ? | 3% | ? | -1.7% | 93%[activator]
O=C(Nc1ccc(Cl)cc1)N(Cc1cccnc1)Cc1ccco1 | -50% | 5% | -4% | -12% | -3% | 5% | 1.6% | /
Cc1nnc(C)n1/N=C/c1cc2ccccc2nc1Cl | / | / | -2% | -15%[46.1 µM] | -4% | -5% | / | 3%
O=C(CCc1ccccc1)NCC(=O)N/N=C/c1ccc2c(c1)OCO2 | 14% | -9% | 17% | ? | 2% | 0% | -2.7% | 0%
CCc1ccc(CNC(=O)c2ccc3c(Cl)c4c(nc3c2)CCCC4)cc1 | / | 1% | / | 6%[46.1 µM] | ? | / | 0.2% | 13%
CN(C)S(=O)(=O)c1cccc(NC(=O)Cc2ccsc2)c1 | 4% | / | -2% | -5%[46.1 µM] | 2.8µM* | 1% | / | -10%
O=C(CSc1nc(N2CCOCC2)nc(N2CCOCC2)n1)Nc1ccc(Cl)cc1Cl | -2% | / | -4% | 13% | -2% | -16% | / | -14%
Cc1ccc(C(=O)Nc2nc(C(C)(C)C)cs2)s1 | -83% | 6% | -52% | ? | ? | -29% | -6.4% | -8%
CCCCn1c(N)c(N(CC)C(=O)c2cc(S(=O)(=O)N3CCN(CC)CC3)ccc2Cl)c(=O)[nH]c1=O | -8% | / | 0% | 8% | -1% | 3% | / | -23%
O=C(Nc1cccnc1Cl)c1cc(-c2ccccc2O)on1 | -17% | / | -3% | -15%[46.1 µM] | 1%[46.1 µM] | -12% | / | -49%
Brc1ccc(-c2csc(/N=C/N3CCOCC3)n2)cc1 | -52% | 13% | -17% | ? | ? | -19% | -1.8% | -5%
CCOCCCNC(=S)N1CCCN(c2nc3cc(C)cc(C)c3cc2C#N)CC1 | 6% | / | -2% | ? | 1% | -4% | / | -10%
O=C(CCS(=O)(=O)c1nc(-c2cccs2)cc(C(F)(F)F)n1)Nc1cc(Br)ccc1O | / | -9% | / | ? | ? | / | -11% | 14µM*
COc1ccc(-c2cc(C(=O)NC(C)c3ccccc3)c3cc(C(C)C)ccc3n2)cc1 (centres undefined) | / | -18% | / | / | 5%[46.1 µM] | / | 0.8% | -7%
Cc1ccc(CSc2nnc(CS(=O)Cc3ccc(Cl)cc3Cl)n2C)cc1 (centres undefined) | -14% | ? | 1% | ? | -13% | -5% | -0.7% | -24%
Cc1c(CCNC(=O)c2ccc(Br)o2)sc2nc(-c3ccc(F)cc3)nn12 | / | ? | / | / | ? | / | -5.9% | ?
CCCCc1ccc(NC(=O)CN2C(=O)C3CCCCC3C2=O)cc1 (centres undefined) | / | / | -8% | 3% | ? | 17% | / | 18%
Cc1cc(-n2c(C)cc(C(=O)CN3C(=O)NC4(CCCCC4)C3=O)c2C)no1 | -17% | -9% | -8% | ? | 9% | 14% | 1.1% | 34%[activator]
C=CCNC(=S)NNC(=O)C(CCC(C)C)CC(C)(C)O (centres undefined) | 8% | -10% | -3% | -8% | -5% | -19% | -2.7% | 21%
COc1ccc2oc(C(=O)NCCC(C)C)c(C)c2c1 | / | / | -5% | ? | ? | -17% | / | 36%[activator]
Cc1ccc(CNc2oc(C)nc2C#N)cc1 | -7% | 2% | -4% | -2% | 4% | -9% | -1.4% | 0%
CCc1nc2ccccc2c(=O)n1NCCc1ccccc1 | -19% | -7% | 12% | -24% | -1% | 0% | -5.3% | -14%

The list goes on.
SMILES | NS1 function inh | Cruzain noTriton | SARS PLpro yeast | MARV entry inh | LASV entry inh | RE007 growth inh | Cruzain Triton | StopGo reporter
Cc1cccnc1NC(=O)c1ccc(OCc2c(C)noc2C)cc1 | 3% | / | 0% | / | / | -1% | / | 28%
CC(C)CC1(C(=O)NCc2cc(F)cc(C(F)(F)F)c2)C=CCN1C(=O)c1ccccc1 (centres undefined) | 9% | -1% | 11% | -42% | -1% | -14% | -2.5% | 6%
CCOC(=O)CSc1nnc(CNC(=O)c2ccc([N+](=O)[O-])cc2)n1C | / | / | 5% | ? | 3% | 1% | / | -4%
CCOC(=O)c1ccc(NC(=O)Nc2c[nH]c(=O)[nH]c2=O)cc1 | / | 8% | / | / | 5%[46.1 µM] | / | 2.3% | 4%
CC(C)Cc1nnc(NC(=O)C2CSC3(C)CCC(=O)N23)s1 (centres undefined) | / | / | -3% | 19%[46.1 µM] | ? | -3% | / | 20%
COC(=O)[C@@H](NC(=O)Nc1ccc(S(N)(=O)=O)cc1)C(C)C | 8% | 3% | -4% | 1% | 12% | -29% | -0.5% | -6%
CCOC(=O)CNC(=O)COc1coc(CN2CCN(c3ccccc3)CC2)cc1=O | 25% | / | 2% | 4%[46.1 µM] | -5%[46.1 µM] | -8% | / | -3%
Cc1ccccc1-c1nc(CN2CCC(C(=O)NCc3ccccc3Cl)CC2)c(C)o1 | / | -4% | / | 8%[46.1 µM] | 0%[46.1 µM] | / | 0.5% | -19%
CCOC(=O)c1c(-c2ccc(C)cc2)csc1/N=C/N(C)C | / | / | -9% | ? | -9% | -11% | / | -1%
CC1CCc2c(C(=O)NCc3cccnc3)csc2C1 (centres undefined) | 2% | -4% | -20% | 11% | -1% | -3% | -2.1% | 2%
CCOC(=O)c1ccc(-n2c(N)c(C(=O)NCC3CCCO3)sc2=S)cc1 (centres undefined) | -46% | 4% | -9% | -1% | 3% | -24% | -3.6% | -14%
O=C(COc1ccccc1Cl)NNC(=O)c1ccc2nc[nH]c2c1 | / | / | 1% | -1% | -9% | 11% | / | 0%
